# Compound activity as filed in PubChem.
# HPGD block – blocks human HPGD enzyme activity; P15428; purified HPGD, NADH fluorescence kinetic, PGE2 substrate; Potency, µM, for the others: at the top dose activity change, negative = inhibition, usual class: inhibitors; 150,000 compounds, 4.3% hits; active = well fitted inhibition curve with a large enough effect (not every such curve was filed as active); inconclusive = small, poorly fitted or top-dose-only effect, or another doubt; inactive = no such curve, though single readings can be large or run the other way;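 note: top concentration of the series not given in the record; plate controls included wells without enzyme; inactives centre near -10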
# Target sequence (P15428 whole entry, looked up): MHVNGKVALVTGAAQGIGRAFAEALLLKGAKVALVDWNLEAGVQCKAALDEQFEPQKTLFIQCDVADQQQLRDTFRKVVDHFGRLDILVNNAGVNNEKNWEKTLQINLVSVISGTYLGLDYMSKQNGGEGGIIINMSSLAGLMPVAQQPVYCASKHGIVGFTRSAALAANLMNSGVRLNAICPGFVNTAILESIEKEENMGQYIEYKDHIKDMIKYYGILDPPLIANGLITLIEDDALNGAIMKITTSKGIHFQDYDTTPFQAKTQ
#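 20 nM HPGD preincubated 15 min at room temperature with compound in 50 mM Tris-HCl pH 8, 0.01% Tween 20. Started with 1 mM NAD+ and 30 uM prostaglandin E2; NADH fluorescence (360/450 nm) read 5 times over 30-s intervals, last minus first.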
# * = called active by the depositor; ? = inconclusive; & = joins results of further samples. % is set by controls: 0 for no effect and ±100 for the full control effect; potency is the fitted concentration of half-maximal effect. This is a subset. The share of hits here may be higher or lower than overall.
SMILES,HPGD block
S=C(NCc1cccc(Cl)c1)NC1CCCCC1,-25%
COc1ccc(C(C)(C)C)cc1NC(=O)c1c(C)noc1C,-10%
CCC(C)(C)C(=O)Nc1cc([N+](=O)[O-])ccc1Cl,-7%
O=C(CCCN1C(=O)c2ccccc2C1=O)Nc1sc2c(c1C(=O)NCc1ccco1)CCC2,-8%
O=C(CCCCCn1c(SCc2ccncc2)nc2ccccc2c1=O)NCc1ccco1,18µM*
CCC(CC)=NNc1cccc([N+](=O)[O-])c1,?
CC(C)CC(=O)NC(Nc1ccccc1F)C(Cl)(Cl)Cl (configuration not stated),-3%
Cc1nn(-c2nc3ccccc3s2)c(C)c1Oc1ccccc1O,?
O=C(NC1CCCC1)c1ccc(CN2CCOCC2)cc1,-22%
Cc1nnc(NC(=O)c2oc3c(ccc4ccccc43)c2C)s1,?
Cc1nc2ccc(NC(=O)N3CCC(c4ccccc4)C3)cc2nc1C (configuration not stated),?
Cc1ccc(C(C(=O)NCc2ccccc2)N(Cc2cccs2)C(=O)c2ccc3c(c2)OCCO3)cc1 (configuration not stated),-11%
CCOC(=O)c1c(CN2CCN(c3ccccc3)CC2)oc2ccc(O)cc12,-13%
Nc1nc2[nH]c(=O)c(=O)[nH]c2c(=O)[nH]1,-8%
COc1ccccc1NC(C)=O,-7%
CC(=O)NC(=O)Nc1sc(=S)n(C)c1C,-2%
Cc1ccccc1-n1c(SCC(=O)N/N=C/c2sccc2C)nc2ccccc2c1=O,-10%
CC(=O)c1ccccc1NC(=O)CSc1nnc2ccccn12,-5%
CCOC(=O)C1CCN(S(=O)(=O)c2ccc(OC)c(Cl)c2Cl)CC1,-20%
COc1ccc(CN2CCN(C(=O)CC(C)C)CC2)c(OC)c1OC,6%
Cc1cc(N2CC34C=CC(O3)C(C(=O)O)C4C2=O)no1 (configuration not stated),-5%
CN(C)/C=C/C(=O)c1ccccc1F,-27%
COc1cccc(OC)c1C(=O)N1CCN(S(=O)(=O)c2ccccc2)CC1,-6%
Cc1cccc(C(=O)N2CCC(=O)N([C@H](COCc3ccccc3)Cc3ccccc3)CC2)c1,-5%
Nc1c(C(=O)c2ccccc2)sc2c1c(=O)[nH]c(=O)n2-c1ccccc1,?
CC1CN(CC(=O)c2c(N)n(Cc3ccccc3)c(=O)n(C)c2=O)CC(C)O1 (configuration not stated),-8%
O=C(c1ccc2c(c1)OCO2)N1CCN(c2ncccn2)CC1,-8%
Cc1cccc(C)c1NC(=O)C(NC(=O)c1ccccn1)c1ccccc1[N+](=O)[O-] (configuration not stated),-7%
Cc1ccc(/C=c2/sc3nnc(-c4ccccc4Cl)n3c2=O)o1,-22%
COc1ccccc1OCC(=O)OCC(=O)Nc1sccc1C(N)=O,0%
Cc1cc(/C([O-])=C(/C(=S)Nc2ccc(F)cc2)[n+]2ccccc2)c(C)n1-c1ccc(F)cc1,-11%
CN(C)c1ccnc2sc3c(=O)n(Cc4ccccc4)cnc3c12,-22%
Cc1ccnc(NS(=O)(=O)Cc2ccccc2)c1,?
Cc1nc(NC(=O)c2ccc(F)cc2)sc1C(=O)Nc1ccc2c(c1)CCC2,?
CCCCc1nc2c(c3c1C[C@H](C)OC3)CN(S(=O)(=O)c1ccc(NC(C)=O)cc1)CC2,-2%
O=C1CCCC2=C1C(c1ccccc1)n1c(s/c(=C/c3cccc(F)c3)c1=O)=N2 (configuration not stated),-11%
CCOC(=O)c1sc(NC(=O)CSc2n[nH]c(-c3ccccc3)n2)c(C#N)c1C,1µM*
Cc1nc2ccccn2c1C(=O)NNS(=O)(=O)c1ccc(C(C)(C)C)cc1,-1%
O=c1c(Cl)c(N2CCN(c3ccc(F)cc3)CC2)cnn1-c1nc2ccccc2s1,-3%
Cc1ccc(S(=O)(=O)N(CC(=O)N/N=C/c2ccco2)c2cc(Cl)cc(Cl)c2)cc1,-18%
O=C(CS(=O)c1cccc(C(F)(F)F)c1)Nc1ccc(Cl)cc1Cl (configuration not stated),-11%
COc1ccc(NC(=O)Cn2nnc(-c3ccccc3NS(=O)(=O)c3ccccc3)n2)cc1,-16%
CC(C)c1ccc(O)c(N)c1,-21%
COc1ccc(C(=O)NC(Oc2ccccc2)C(Cl)(Cl)Cl)cc1 (configuration not stated),-9%
CCOC(=O)CC(=O)CSc1nc(-c2cccnc2)ccc1C#N,?
Cc1ccc(NC(=O)Nc2ccc(Cl)cc2)c(Br)c1,-1%
Clc1ccc(-c2nn3c(-c4ccccc4)nnc3s2)cc1,?
Cc1c(N=Cc2c(O)n(Cc3ccco3)c(=O)c3ccccc23)c(=O)n(-c2ccccc2)n1C,-12%&-16%
CC(=O)Nc1ccc(C(=O)CSc2nnc(Cn3nnc4ccccc43)n2C)cc1,-18%
CC(C)(C)OC(=O)N1CCCC(C(=O)CC#N)C1 (configuration not stated),-1%
Cc1nnc(SCC(=O)Nc2ccccc2)[nH]c1=O,-11%
COc1ccc(/C=N/Nc2nc3ccccc3o2)cc1O,-6%
Cc1ccc(CNC(=O)CN2C(=O)COc3ccc(C)cc32)cc1,-15%
COc1ccccc1CNCC(O)(c1ccc(Cl)cc1)c1ccc(Cl)cc1,-8%
CCC1=C2CC[C@H]3C(=O)NC(=O)[C@H]3[C@H]2[C@@]2(C)C(=NCC(=O)OC)OC(=O)N2C1=O,-7%
Brc1csc(/C=N/Nc2nc3ccccc3s2)c1,-11%
CCC(C)(C)n1nnnc1C(c1ccccn1)N1CCOCC1 (configuration not stated),-11%
CC(C)CC(CO)N1CCN(C(=O)c2ccc(C(C)(C)C)cc2)CCC1=O (configuration not stated),-12%
O=C(CCC(=O)OCCCC(F)(F)C(F)(F)F)Nc1ccc(Cl)cc1Cl,-24%
O=C(O)/C(=C\c1ccc(Br)cc1)c1ccc(S(=O)(=O)N2CCCCC2)s1,5%

# Already shown: an excerpt of the list.
SMILES,HPGD block
O=C(CS(=O)c1cccc(C(F)(F)F)c1)Nc1ccc(Cl)cc1Cl (configuration not stated),-11%
COc1ccc(NC(=O)Cn2nnc(-c3ccccc3NS(=O)(=O)c3ccccc3)n2)cc1,-16%
CC(C)c1ccc(O)c(N)c1,-21%
COc1ccc(C(=O)NC(Oc2ccccc2)C(Cl)(Cl)Cl)cc1 (configuration not stated),-9%
CCOC(=O)CC(=O)CSc1nc(-c2cccnc2)ccc1C#N,?
Cc1ccc(NC(=O)Nc2ccc(Cl)cc2)c(Br)c1,-1%
Clc1ccc(-c2nn3c(-c4ccccc4)nnc3s2)cc1,?
Cc1c(N=Cc2c(O)n(Cc3ccco3)c(=O)c3ccccc23)c(=O)n(-c2ccccc2)n1C,-12%&-16%
CC(=O)Nc1ccc(C(=O)CSc2nnc(Cn3nnc4ccccc43)n2C)cc1,-18%
CC(C)(C)OC(=O)N1CCCC(C(=O)CC#N)C1 (configuration not stated),-1%
Cc1nnc(SCC(=O)Nc2ccccc2)[nH]c1=O,-11%
COc1ccc(/C=N/Nc2nc3ccccc3o2)cc1O,-6%
Cc1ccc(CNC(=O)CN2C(=O)COc3ccc(C)cc32)cc1,-15%
COc1ccccc1CNCC(O)(c1ccc(Cl)cc1)c1ccc(Cl)cc1,-8%
CCC1=C2CC[C@H]3C(=O)NC(=O)[C@H]3[C@H]2[C@@]2(C)C(=NCC(=O)OC)OC(=O)N2C1=O,-7%
Brc1csc(/C=N/Nc2nc3ccccc3s2)c1,-11%

# (cont.)
SMILES,HPGD block
Cc1nn(C)c(C)c1S(=O)(=O)Nc1ccc2c(c1)OCO2,-15%
COC(=O)Cc1cc(=O)oc2c(C)c(O)ccc12,?
COc1ccc(-c2cc(C(=O)NC(Cc3c[nH]c4ccccc34)C(=O)O)c(C)o2)cc1OC (configuration not stated),?
O=C(NC1CCCCC1)C1CCC(CNS(=O)(=O)c2cccc3nsnc23)CC1 (configuration not stated),-18%
COC(=O)COn1c(SCC(=O)OC)nc2ccccc2c1=O,-9%
COc1cc(CNCc2ccccn2)ccc1OCc1c(Cl)cccc1Cl,-4%
Cc1cccc(NC(=O)CSc2nc3nc(C)cc(C)c3c(=O)[nH]2)c1,-17%
COc1ccc2c(c1)nc(SCC(=O)C(C)(C)C)n2C,-22%
COc1ccc(C(=O)c2ccc(Br)cc2)c2ccccc12,?
Cc1cc2c(=O)n(CC(=O)N3CCN(c4ccc(F)cc4)CC3)cnc2s1,-17%
COc1ccc(S(=O)(=O)Cc2ccc(C(=O)N3CCN(c4ccccn4)CC3)o2)cc1,-11%
Cn1c(C(=O)N2CCCC(C(=O)NCCCSC3CCCCC3)C2)cc2sccc21 (configuration not stated),-5%
CCn1c(NC(=O)c2cccc(Cn3cc(Cl)cn3)c2)nc2ccccc21,-19%
COCCn1c(SCC(=O)NCc2ccco2)nnc1-c1c[nH]c2ccccc12,-8%
Cc1c(Cl)cccc1NC(=O)c1cc(C2CC2)on1,-9%
Cc1ccc(NCCC(=O)c2cccs2)cc1Cl,-7%
COc1ccc(C(=O)Nc2ccc(Cl)c(S(=O)(=O)Nc3ccccc3OC)c2)cc1,-29%
COc1ccc2c(c1)nc(SCC(C)O)n2C (configuration not stated),-12%
O=C(CNc1ccccc1)N/N=C/c1ccc2c(c1)OCCO2,-20%
Cc1ccccc1-c1nc(CS(=O)(=O)CC(=O)Nc2cc(F)ccc2F)c(C)o1,-6%
CC(=O)c1ccc(N=Cc2c(O)n(-c3cc(Cl)ccc3N3CCOCC3)c(=O)c3ccccc23)cc1,-15%
CCCCN(CCCC)c1nc(OC)nc(-n2nnc(C(C)=O)c2C)n1,-13%
O=C(COC(=O)/C=C/c1ccc2c(c1)OCO2)Nc1ccc(S(=O)(=O)N2CCCC2)cc1,?
O/N=C1\CCCc2ccc(Cl)cc21,-16%
COc1cccc(OC)c1OCCNCC1CSc2ccccc2O1 (configuration not stated),7%
COc1cccc(Nc2nc3ccccc3n2C(C)C)c1,-13%
Cn1c(NCc2cccs2)nc2ccccc21,-11%
Cc1ccc(S(=O)(=O)N(C)C)cc1NC(=O)c1cncc(Br)c1,-10%
COc1ccc(/C(O)=C2/C(=O)C(=O)N(Cc3cccnc3)C2c2ccncc2)cc1F (configuration not stated),-25%
CNC(=O)c1cc2c(ccc3ccccc32)oc1=N,?
Cc1ccc(S(=O)(=O)NC2CCCC(C(=O)O)C2)cc1 (configuration not stated),-4%
CCN(CC)c1ccc(/C=N/Nc2cccc(C)c2)c(O)c1,22µM*
Cc1c(NC(=O)/C(C#N)=C\c2cccs2)c(=O)n(-c2ccccc2)n1C,-15%
O=C(COC(=O)C1(c2ccc(Cl)cc2)CCCC1)N1CCc2ccccc21,-14%
O=C(CSc1nc(NS(=O)(=O)c2ccccc2)cc(=O)[nH]1)Nc1ccc(F)cc1,0%
Cc1ccc(C(=O)OCC(=O)c2c(N)n(C)c(=O)n(C)c2=O)cc1S(=O)(=O)N1CCCCC1,-8%
C[N+](C)(C)c1ncnc2c1ncn2[C@@H]1C[C@H](O)[C@@H](CO)O1,-8%
CC1CCCN(c2ccc(/C=C(\C#N)c3nn(-c4ccccc4)c(N)c3C#N)cc2[N+](=O)[O-])C1 (configuration not stated),-15%
CC#CCCC(=O)N1C=Cc2ccccc2C1C#N (configuration not stated),-6%
Cc1nn(S(=O)(=O)N2CCCCC2)c(C)c1Br,-4%
O=C(C1=C(O)C(=O)N(Cc2ccco2)C1c1cccnc1)c1cc2ccccc2o1 (configuration not stated),-9%
NC(N)=N[C@@H]1C(O)[C@H](N=C(N)N)[C@@H](O)C(O)[C@H]1O (some centres not stated),-10%
O=c1[nH]cnc2sc3c(c12)CCCC3,-19%
CN(CC(=O)Nc1ccc2c(c1)OCCO2)S(=O)(=O)c1ccc(Br)s1,-9%
CC(C)(C)c1nnc2sc(SCC(=O)c3ccc(Cl)cc3)nn2c1=O,28µM*
CCOc1ccc(-c2cn3ccccc3n2)cc1[N+](=O)[O-],-7%
COc1cccc(C2CC(c3ccccc3)Nc3ncnn32)c1 (configuration not stated),-17%
COc1ccc(C(C)=O)cc1COC(=O)CNC(=O)c1ccc(Cl)cc1,16µM*
CC(C)c1nc(SCC(=O)Nc2nc3c(s2)CCCC3)c2ccccc2n1,?
COc1ccc(CN2C(=O)CN=C2Nc2cccc(C)c2C)cc1,-3%
CC(C)CNC(=O)C1CCN(Cc2ccc(OCc3ccccc3)cc2)CC1,1%
COc1cc(/C=C/C(=O)c2cccc([N+](=O)[O-])c2)cc(OC)c1OC,-13%
Cc1ccc2sc(NC(=O)CN3C(=O)CCC3=O)nc2c1C,-13%
O=C(CN1C(=O)CSc2ncccc21)NCCN1CCOCC1,-6%
CC(C)CO[C@H](c1ccc2c(c1)OCO2)[C@H](C)Br,-9%
CC1CCCC(C)N1C(=O)CN1CCN(c2nc(-c3ccc(F)cc3)cs2)CC1 (configuration not stated),-26%
COC(=O)c1cc(Cl)c(NC(=O)c2ccc(F)cc2)cc1OC,?
Cc1ccc(C)c2[nH]c(=O)c(C(c3nnnn3Cc3ccccc3)N3CCc4ccccc4C3)cc12 (configuration not stated),?
Cc1nc2cc(C(F)(F)F)ccc2n1C1CCN(CC(=O)NC(C)(C)C)CC1,-4%
Cc1cccc(C(=O)NC(=S)NNC(=O)c2cccs2)c1,-25%
# Further entries.
SMILES,HPGD block
CC(C)CC(=O)Nc1ccc2nn(-c3ccccc3)nc2c1,?
O=C1C2CCCN2C(c2ccc(Br)cc2)N1c1ccc(F)cc1 (configuration not stated),0%
O=C(CSc1nc2ccccc2o1)Nc1nc(-c2ccccc2)cs1,-6%
Cc1ccc(P(C)(=O)c2ccc(C)cc2)cc1,?
CCOC(=O)c1cc(C#N)c(Oc2ccc(F)cc2)nc1-c1ccccc1,-15%
